Source: PubChem BioAssay
Anaer choline gr – growth inhibitors of anaerobic choline-fed gram-negatives, minimal medium, absorbance; Gram-negative bacterium anaerobic choline minimal medium; active compounds read low; many inactives read as strong as hits in the columns shown; calls only; 0.2% of 55,000 active; AID 1963822, 2024;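 active = growth z-score on choline under -2 at 7 or 20 h with little or no fall on glycerol, limits in tiers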;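 note: stock transfer was 300 nL into about 50 µL; the organism is E. coli; final concentration not given here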
Anaer choline gr early – recorded beside Anaer choline gr, whose call it bears; z-score; measured here: choline growth z-score, timepoint 1;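 score of optical density at 7 h as mean of two plates; lower means less growth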
Starred values were filed as active, the others as inactive; i = inactive; + = active, no number; ! = repeats disagree. Some of the compounds tested; rates above refer to the full screens.

SMILES,Anaer choline gr early,Anaer choline gr
O=C(Nc1ccccc1Br)C1Nc2cc(F)ccc2S(=O)(=O)N1 (configuration not stated),1,i
CN(C)CCCn1cc(C2=C(c3c[nH]c4ccccc34)C(=O)NC2=O)c2ccccc21,-2.2*!,+!
O=C(COc1cccc(Cl)c1)NCC(c1ccccc1)c1c[nH]c2ccccc12 (configuration not stated),-0.03,i
Cc1ccc(-c2cncc(C(=O)NCc3ccc(C(C)C)cc3)c2)cc1,0.26,i
CCCCCCCCCCCCCCCCOC[C@H](COP(=O)([O-])OCC[N+]1(C)CCCC1)OC(C)=O,-1.7,i
Cc1c(-c2nn3c(-c4ccncc4)nnc3s2)oc2ccccc12,-0.23,i
CCc1ccc(NC(=O)c2cc3c(=O)n(Cc4ccc(OC)cc4)ccc3nc2C)cc1,0.41,i
Cc1ccccc1C(=O)Nc1ccc(C2(C(=O)NCC3CCCO3)CC2)cc1 (configuration not stated),0.47,i
O=C(C1CCCCC1)N1CCN(c2cc(=O)n3nc(-c4ccccc4)sc3n2)CC1,0.64,i
CCOc1ccc2oc(C)c(C(=O)Nc3ccccc3OC)c2c1,-0.34,i
O=C(Nc1ccc(F)cc1)C1CC(=O)N(CCc2c[nH]c3ccc(F)cc23)C1 (configuration not stated),-0.19,i
CCn1nc(C)c2c1c(=O)n(Cc1ccccc1)c(=O)n2CC(=O)N1CCCCC1C (configuration not stated),-0.41,i

Among those listed so far, these contain a halogen:
SMILES,Anaer choline gr early,Anaer choline gr
O=C(Nc1ccccc1Br)C1Nc2cc(F)ccc2S(=O)(=O)N1 (configuration not stated),1,i
O=C(COc1cccc(Cl)c1)NCC(c1ccccc1)c1c[nH]c2ccccc12 (configuration not stated),-0.03,i
O=C(Nc1ccc(F)cc1)C1CC(=O)N(CCc2c[nH]c3ccc(F)cc23)C1 (configuration not stated),-0.19,i

Next part.
SMILES,Anaer choline gr early,Anaer choline gr
Cc1c(C(=O)O)nnn1-c1ccc(F)cc1,0.38,i
CS(=O)(=O)N1CCCC1c1ccc(F)cc1 (configuration not stated),-0.96,i
CC(C)c1ccc(Nc2nncc(=O)[nH]2)cc1,-1.5,i
CCOc1ccc(C(=O)N(CCC(=O)N2CCNCC2)Cc2cccc(Cl)c2)cc1,0.22,i
COC(=O)c1sccc1NC(=O)NCC(c1ccc(OC)c(OC)c1)c1c[nH]c2ccccc12 (configuration not stated),-0.18,i
O=C(NCc1cccc(Br)c1)c1ccc(Cn2c(=O)c(=O)[nH]c3cccnc32)cc1,0.17,i
Cc1ccc(COCc2nn(C)c3c2CN(C(=O)c2ccc4c(c2)OCO4)CC3)cc1,-0.5,i
CCCCOc1ccc(S(=O)(=O)NCCOc2ccc(-c3ccccc3)nn2)cc1,0.23,i
COc1ccc(OC)c(S(=O)(=O)N2CCC3(C2)C(=O)N(C)c2ccccc23)c1 (configuration not stated),-0.74,i
COc1ccc(Cl)cc1C(=O)Nc1cccc(-c2nc3cccnc3s2)c1,-1.2,i
COc1cccc(C(=O)N2CCC(NS(=O)(=O)c3ccc(C)cc3)CC2)c1,0.44,i
O=C(Nc1nc2ccccc2n1Cc1ccccc1Cl)c1ccccc1,-0.23,i

Entries above that have an NH in an aromatic ring (6):
SMILES,Anaer choline gr early,Anaer choline gr
CN(C)CCCn1cc(C2=C(c3c[nH]c4ccccc34)C(=O)NC2=O)c2ccccc21,-2.2*!,+!
O=C(COc1cccc(Cl)c1)NCC(c1ccccc1)c1c[nH]c2ccccc12 (configuration not stated),-0.03,i
O=C(Nc1ccc(F)cc1)C1CC(=O)N(CCc2c[nH]c3ccc(F)cc23)C1 (configuration not stated),-0.19,i
CC(C)c1ccc(Nc2nncc(=O)[nH]2)cc1,-1.5,i
COC(=O)c1sccc1NC(=O)NCC(c1ccc(OC)c(OC)c1)c1c[nH]c2ccccc12 (configuration not stated),-0.18,i
O=C(NCc1cccc(Br)c1)c1ccc(Cn2c(=O)c(=O)[nH]c3cccnc32)cc1,0.17,i

Compound profiles, from the list above. Order of values: Anaer choline gr early | Anaer choline gr
CCCCCCCCCCCCCCCCOC[C@H](COP(=O)([O-])OCC[N+]1(C)CCCC1)OC(C)=O is listed as -1.7 | i
CN(C)CCCn1cc(C2=C(c3c[nH]c4ccccc34)C(=O)NC2=O)c2ccccc21 is listed as -2.2*! | +!
O=C(C1CCCCC1)N1CCN(c2cc(=O)n3nc(-c4ccccc4)sc3n2)CC1 is listed as 0.64 | i

Next entries follow.
SMILES,Anaer choline gr early,Anaer choline gr
CN(C)c1ncc(C(=O)NCc2ccc(Cl)cc2)cn1,-0.89,i
Cc1cc(C)c2c(-n3cccc3)nn(CC(=O)Nc3cccc(Cl)c3)c2n1,0.83,i
CCOC(=O)c1c(CSc2ccccc2)n(C)c2cc(Br)c(OCC(O)Cn3nc(C)cc3C)cc12 (configuration not stated),-0.6,i
NC(=O)c1ccccc1NC(=O)c1ccc(S(=O)(=O)c2ccc(Br)cc2)nc1,0.77,i
CCc1cc(C2CCCN2C(=O)C(C)(C)C)on1 (configuration not stated),-0.38,i
COc1ccccc1Cn1cnc2c([nH]c3ccccc32)c1=O,0.47,i
Cc1cc(C)nc(NC(c2ccccc2)c2c(NC(=O)c3ccccc3)sc(C)c2C)n1 (configuration not stated),-0.07,i
Cc1c(C)n(C)c2ccc(C(=O)NC(C)C)cc12,-0.02,i
Cc1ccc(C)c(NC(=O)C(C)Sc2nc3c(c(=O)[nH]2)CCCC3)c1 (configuration not stated),1.5,i
O=C(Nc1ccc2[nH]c(=O)oc2c1)Nc1ccc(Br)cc1F,0.41,i
Cc1oc(-c2ccc(Cl)cc2)nc1CN1CCC(C(=O)NCc2ccccc2Cl)CC1,-0.12,i
CCOC(=O)c1c(NC(=O)C2Cc3ccc(C)cc3C(=O)O2)sc2c1CCC(CC)C2 (configuration not stated),0.36,i
c1ccc(-c2noc(-c3ccc(Nc4ccc5c(c4)OCCO5)nn3)n2)cc1,1.4,i
O=C(CSc1nnc(-c2cccnc2)o1)NCCc1ccccc1,-0.26,i
COc1ccc(CN2CCCC2c2cc(C)on2)cc1OC (configuration not stated),-0.41,i
OC(c1cc(C(F)(F)F)nc2c(C(F)(F)F)cccc12)C1CCCCN1 (configuration not stated),0.1,i
O=S1(=O)C[C@H](N2CCN(c3ncccn3)CC2)[C@@H](S(=O)(=O)c2ccc(F)cc2)C1,0.03,i
COC(=O)c1ncn2c1C(=O)N(CCC1=CCCCC1)C(C)(C(=O)NC1CCCCC1)C2 (configuration not stated),1.2,i
Cc1ccc(-c2noc(-c3nnn(Cc4nc(-c5ccccc5)oc4C)c3C)n2)cc1,0.09,i
C=CCn1c(CN(c2ccc(F)cc2)S(C)(=O)=O)nnc1SCC(=O)c1ccccc1,-0.12,i
CC1CCN(C(=O)c2c(-c3ccccc3)nc3n2CCS3(=O)=O)CC1,-1.9,i
CCCNS(=O)(=O)C1CCS(=O)(=O)C1 (configuration not stated),0.48,i
CCOC(=O)COc1ccc(F)cc1C(=O)c1ccn2nc(-c3ccc(OC)cc3)cc2n1,1.9,i
CCOCCCNC(=O)C1=C(C)C(=O)OC12CCN(CC)CC2,-0.49,i
CCOc1ccccc1CNCc1c(-c2ccc(CC)cc2)nc2ccccn12,-0.67,i
CN1CCCc2cc(C(CNC(=O)c3ccc(Cl)cc3)N3CCCC3)ccc21 (configuration not stated),0.42,i
Nc1nc2[nH]c(=O)cnc2c(=O)[nH]1,1.1,i
CCc1ccccc1NC(=O)CCn1cnc2c(c(C)c(C)n2-c2ccccc2)c1=O,-0.97,i
CCN(Cc1ccccc1)c1ccc(NS(C)(=O)=O)cc1C(=O)O,-1.4,i
COc1ccc(OC)c(S(=O)(=O)N2CCN(Cc3nc4cccnc4n3-c3ccc(C)cc3)CC2)c1,-0.03,i
CCCN(CCC)CCCNc1ncnc2onc(-c3cc(F)cc(F)c3)c12,0.95,i
COC(=O)CCc1sc(Nc2ccccc2)nc1-c1ccc(OC)cc1,-0.06,i
O=C(CN1CCN(C(=O)c2cc3c(s2)CN(C2CCCC2)C3)CC1)N1CCCC1,0.15,i
CCc1cc(C2CCCN2C(=O)Cn2nc(C(F)(F)F)c3c2CCCC3)on1 (configuration not stated),0.25,i
Cc1cc(C)c(/C=C/c2onc(C)c2S(=O)(=O)N2CCCC(C(=O)N(C)C3CCCCC3)C2)c(C)c1 (configuration not stated),1.4,i
O=S(=O)(c1ccc2c(c1)OCCO2)N1CCC(n2cnc3cccnc32)CC1,-0.13,i
CCn1c(=O)c2c(C(=O)NCCOC)cc(=O)n(CC)c2n(C)c1=O,-0.94,i
CCn1ccc2cc(S(=O)(=O)N3CCCN(C(=O)Nc4ccc5c(c4)OCCO5)CC3)ccc21,0.77,i
O=C(CSc1nnc2ccc(C(=O)NCc3ccccc3)cn12)NCc1ccc(F)cc1,-1.7,i
c1cc(N2CCCC2)ncc1-c1noc(CN2CCC3(CC2)OCCO3)n1,-1.6,i
CCOC(=O)c1cc(C)nc2c1c(=O)n(Cc1cc(C)ccc1C)c(=O)n2C,-0.09,i
O=C(CSC1=Nc2ccccc2N=C(c2ccccn2)C1)NC1CCc2ccccc21 (configuration not stated),3.4,i
CC1CCN(Cc2nc(-c3ccc(N4CCSCC4)nc3)no2)CC1,-1.9,i
COc1cc(CN2CCCC2c2cc(C(C)C)on2)ccc1OCC(C)C (configuration not stated),0.93,i
O=C(NCCCN1CCOCC1)C1CCCN(c2nn3c(=O)c4c(nc3s2)CCCC4)C1 (configuration not stated),0.79,i
Cc1cc(C)cc(OCC(=O)Nc2ccc(SCc3cc(=O)n4c(ncn4C(C)C)n3)cc2)c1,-1,i
O=C(NCc1ccc(Cl)cc1)c1nnc(C(=O)Nc2ccc(F)cc2)s1,-0.14,i
O=C(NCCc1c[nH]c2ccccc12)C1CCN(c2nnc(N3CCCCC3=O)s2)CC1,0.97,i
O=C(CCn1cnc2onc(-c3cc(F)cc(F)c3)c2c1=O)NCc1cccc(Br)c1,0.84,i
CCN(CC)S(=O)(=O)c1ccc(-c2nc(C#N)c(N3CCOCC3)o2)cc1,0.12,i
Cc1cc2c(cc1S(=O)(=O)N1CCCC(C(=O)NC3CC3)C1)OC(C)C(=O)N2 (configuration not stated),-0.53,i
O=c1c(O)c(-c2ccc(O)cc2O)oc2cc(O)cc(O)c12,0.3,i
CCCCn1c(=O)c2sccc2n2c(SCc3ccc(F)cc3)nnc12,0.21,i
O=C(c1cccc(N2C(=O)CCS2(=O)=O)c1)N1CCc2ccccc2C1,0.67,i
CCOc1ccc2c(c1)cc(C(=O)Nc1nccs1)n2C,-0.85,i
Cc1ccc(NC(=O)Nc2cccc(OCc3cc(=O)n4ccccc4n3)c2)cc1Cl,0.91,i
COc1cccc(C2C3=C(CC(c4ccc(Cl)cc4)CC3=O)Nc3onc(C)c32)c1 (configuration not stated),0.08,i
COC(=O)CC1=CC(SCc2cccc(F)c2)=Nc2ccccc2N1,2.4,i
O=C1Nc2ccccc2OC1C(=O)NC1CC1 (configuration not stated),1.2,i
COc1ccccc1NC(=O)Cn1nc2c(Sc3ccccc3)nc3ccccc3n2c1=O,0.21,i

(cont.)
SMILES,Anaer choline gr early,Anaer choline gr
C=CCn1c(=O)n(Cc2ccccc2)c(=O)c2cc3c(nc21)CC(C)(C)OC3,0.93,i
CC(C)(C)NC(=O)CSc1nnc(-c2ccncc2)o1,0.02,i
O=c1c2nnc(SCc3cccc(Cl)c3)n2ccn1-c1cccc(F)c1,1.1,i
CNC(=O)c1sc(=S)n(Cc2ccccc2)c1N,-0.75,i
COc1ccc(N2CC(c3nc4ccccc4n3CC(=O)N(c3ccccc3)C(C)C)CC2=O)cc1 (configuration not stated),0.48,i
CCn1cc(S(=O)(=O)N2CCCn3nc(-c4cccc(C(F)(F)F)c4)cc3C2)cn1,-0.22,i
CC(=O)N1N=C(c2ccncc2)OC1c1cc(-c2ccccc2)nc2ccccc12 (configuration not stated),0.11,i
Cc1ccc(NC(=O)NCC2CCN(Cc3cccc(Cl)c3)CC2)cc1Cl,0.42,i
COc1ccc(-n2ccc(=O)c(-c3nc(-c4ccc(C(C)(C)C)cc4)no3)n2)cc1,0.87,i
C=CCn1c(SCC(=O)Nc2ccc(C)cc2C)nc2sc3c(c2c1=O)CCC3,0.9,i
CCOc1ccc(CN2CCCC2c2cc(C(C)C)no2)cc1OCC (configuration not stated),-0.91,i
O=C(c1ccccc1-c1nc(-c2ccccc2)no1)N1CCN(c2ccc(Cl)cc2)CC1,-0.69,i
Cn1c(C(=O)NCCCN2CCC(Cc3ccccc3)CC2)cc2c(=O)n(C)c3ccccc3c21,-0.49,i
CCCCOc1ccc(C2CC(=O)Nc3c2c(C)nn3-c2ccc3nncn3n2)cc1OCC (configuration not stated),-0.84,i
CCCCc1nnc(NC(=O)C2CC(=O)N(CCc3c[nH]c4ccc(OC)cc34)C2)s1 (configuration not stated),0.9,i
COc1ccc(-c2noc(-c3cccn4c(=O)c5ccccc5nc34)n2)cc1OC,0.02,i
Cc1ccc(NC(=O)CSc2nnc(-c3ccncc3)o2)cc1Cl,1.2,i
COc1ccc(NC(=O)c2ccnc(Nc3cccc(OC)c3)c2)cc1,1.1,i
O=C1CC(c2ccc(OCc3ccccc3)cc2)c2cnn(-c3nc4ccccc4s3)c2N1 (configuration not stated),-0.43,i
O=C(Cn1ccn2nc(-c3ccc4c(c3)OCO4)cc2c1=O)NCc1ccc(Cl)cc1,1,i
O=C(COc1ncnc2onc(-c3ccc(F)cc3)c12)N1CCc2ccccc21,0.28,i
CCc1ccc(NC(=O)NCc2nc(-c3ccccc3)oc2C)cc1,-0.12,i
CN(C(=O)CN(CCO)CC(=O)N(C)C(C)(C)Cc1ccccc1)C(C)(C)Cc1ccccc1,-3,i
